TRPV1 PAM = HTS Assay for Compounds that Act as Potentiators of the Vanilloid Receptor 1. Transient receptor potential cation channel subfamily V member 1 (Homo sapiens), Q8NER1. TRPV1-expressing cells, Fluo-8 calcium influx, capsaicin EC20 potentiation; host cell line not named in the record; control for the full effect not named in the record. potentiation, % at 8.33 µM. actives 0.02% (n = 320,000); active means potentiation above 80%; inconclusive means 30% to 80%; inactive means below 30%; further: 0% is about no effect
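TRPV1-expressing cells were cultured overnight at 35.5C and loaded with Fluo-8 calcium dye for 40 to 90 min at room temperature. After a 10 s baseline, compound was added and calcium influx was read kinetically for 3 min (ex 480/em 520 nm).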
CtBP-E1A inh = qHTS Assay for Inhibitors of the CtBP/E1A Interaction; activity change, % (test concentration not listed); AID 651724, 2012; actives 0.49% (n = 340,000); CtBP / adenovirus E1A interaction (AlphaScreen); AlphaScreen GST-E1A/His-CtBP binding, 1536-well; stronger effect = lower value; control for the full effect not named in the record; in the data active means activity change below about -65%; inconclusive means about -30% to -65%; inactive means above about -30%; further: on the % scale 0 is the no-effect control and ±100 the full control effect; compound concentration not given in the record
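Homogeneous bead-based format: GST-tagged E1A captured on glutathione donor beads, His-tagged CtBP on nickel acceptor beads; compounds precede bead addition by 2 h at 37 °C.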
D2 potentiator = Beta-Arrestin HTS for Positive Allosteric Modulators of the Human D2 Dopamine Receptor: Potentiators. DiscoveRx D2 beta-arrestin cells, luminescence, 90 min; 100% = 57 uM dopamine signal. potentiation, % (no concentration beside the values). D(2) dopamine receptor (Homo sapiens), P14416. actives 0.23% (n = 360,000); active = potentiation of 50% or more; inconclusive = 30% to 50%; inactive = 30% or less;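 further: compound concentration not given in the record; tested on top of an EC20 dose of dopamine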
Target sequence (P14416 whole entry, looked up): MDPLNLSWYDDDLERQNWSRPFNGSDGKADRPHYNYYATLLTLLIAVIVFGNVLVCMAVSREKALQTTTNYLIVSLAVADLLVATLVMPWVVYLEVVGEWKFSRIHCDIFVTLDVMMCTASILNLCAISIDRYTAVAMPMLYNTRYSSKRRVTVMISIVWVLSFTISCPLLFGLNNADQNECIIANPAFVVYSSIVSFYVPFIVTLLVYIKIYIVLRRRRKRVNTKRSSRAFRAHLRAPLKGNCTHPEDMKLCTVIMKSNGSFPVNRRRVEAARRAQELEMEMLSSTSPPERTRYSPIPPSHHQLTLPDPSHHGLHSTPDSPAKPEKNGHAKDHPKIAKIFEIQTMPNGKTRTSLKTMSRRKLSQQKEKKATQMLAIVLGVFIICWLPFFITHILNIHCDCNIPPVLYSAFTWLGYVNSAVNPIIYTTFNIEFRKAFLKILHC
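PathHunter beta-arrestin assay in DiscoveRx D2 cells. Compounds were added with an EC20 of dopamine (50 nM final) for 90 min at 37 deg C. Luminescence was read 1 h after detection reagent, with 57 uM dopamine as the EC100 control.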
TRPML1 agonist = qHTS for Agonists of the Human Mucolipin Transient Receptor Potential 1 (TRPML1). Mucolipin-1 (Homo sapiens), Q9GZU1. TRPML1-expressing cells, Ca2+ dye fluorescence, FDSS; host cell line not named in the record; reference of the full effect not given here. activation, % (test concentration not listed). actives 0.12% (n = 410,000). AID 624414, 2012; in the data active = activation above about 50%; inconclusive = about 30% to 50%; inactive = below about 30%; further: 0% is about no effect; the text of the record puts the active cut at 80%
Target sequence (Q9GZU1 whole entry, looked up): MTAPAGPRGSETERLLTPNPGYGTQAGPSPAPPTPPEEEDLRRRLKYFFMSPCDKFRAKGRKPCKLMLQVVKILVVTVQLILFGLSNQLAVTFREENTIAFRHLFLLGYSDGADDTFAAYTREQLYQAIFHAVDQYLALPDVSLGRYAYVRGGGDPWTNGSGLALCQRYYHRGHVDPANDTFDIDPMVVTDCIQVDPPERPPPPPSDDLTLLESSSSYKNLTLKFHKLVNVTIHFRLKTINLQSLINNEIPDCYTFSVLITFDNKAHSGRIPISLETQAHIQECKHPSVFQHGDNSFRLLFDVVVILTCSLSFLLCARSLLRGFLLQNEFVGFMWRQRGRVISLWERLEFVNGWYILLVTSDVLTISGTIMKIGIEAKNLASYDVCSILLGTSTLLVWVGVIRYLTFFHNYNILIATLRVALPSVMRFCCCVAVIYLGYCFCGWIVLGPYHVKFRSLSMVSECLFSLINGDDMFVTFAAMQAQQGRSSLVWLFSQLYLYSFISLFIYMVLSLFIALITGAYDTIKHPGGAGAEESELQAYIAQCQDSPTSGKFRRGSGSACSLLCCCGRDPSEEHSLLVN
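In this qHTS format, compounds were pin-transferred onto Ca8-dye-loaded TRPML1-DL cells induced with Tet overnight, and intracellular Ca2+ fluorescence was recorded kinetically for 110 s after a 10 s baseline. A subsequent 4uM final 54-4 (EC80) addition followed by a second 110 s read served as the antagonist phase.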
TRPML1 inh = qHTS for Inhibitors of the Human Mucolipin Transient Receptor Potential 1 (TRPML1); Mucolipin-1 (Homo sapiens), Q9GZU1; TRPML1-inducible cells, Ca2+ dye fluorescence, FDSS; stronger effect = lower value; inhibition of EC80 agonist-evoked calcium signal; activity change, negative = inhibition, % (no concentration beside the values); actives 0.02% (n = 390,000); AID 624415, 2012; in the data active means activity change below about -50%; inconclusive means about -30% to -50%; inactive means above about -30%;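 further: stimulus is agonist 54-4 at its EC80 concentration; on the % scale 0 is the no-effect control and ±100 the full control effect; compound concentration not given in the record; the text of the record puts the active cut at -80%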
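Calcium fluorescence in TRPML1-DL cells induced overnight with Tet: a 110 s read after compound pin addition, then a 110 s antagonist read after challenge with 54-4 at 4 uM final (EC80).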
Six1-Eya2 inh = qHTS Assay for Inhibitors of the Six1/Eya2 Interaction; Homeobox protein SIX1 (Homo sapiens) + Protein phosphatase EYA2 (Homo sapiens), …; AlphaScreen GST-Six1/His-Eya2 binding, biochemical; stronger effect = lower value; control for the full effect not named in the record; activity change, % (concentration not given with the values); actives 0.56% (n = 360,000); in the data active = activity change below about -65%; inconclusive = about -30% to -65%; inactive = above about -30%; further: on the % scale 0 is the no-effect control and ±100 the full control effect
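AlphaScreen with GST-Six1 and His-Eya2 (5X mix: 250 nM and 500 nM), glutathione donor and nickel acceptor beads; buffer 50 mM Tris pH 8.0, 300 mM NaCl, 1 mM TCEP; 1 h at 37 C in the dark.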
Numbers without * were called inactive; ? = inconclusive; nt = no result given. This is a random part of the collection. About 0.95% of those tested had a hit in this group.

nr	canonical_smiles	TRPV1 PAM	CtBP-E1A inh	D2 potentiator	TRPML1 agonist	TRPML1 inh	Six1-Eya2 inh
1	NC(=O)c1c(NC(=O)COC(=O)c2ccc(O)c(Cl)c2)sc2c1CCCC2	nt	-10	5	2.5	?	-25
2	Cc1cccc(N2C(=O)CN(Cc3cccs3)C2=S)c1	-3	4	-7	0.0	7	7
3	COC(=O)c1sc(NC(=O)c2cc(C)on2)nc1C	-5	0	-11	0.5	-9	-2
4	O=C1C2CC=C(Cl)CC2C(=O)N1CC1Cc2ccccc2CO1 (stereo unspecified)	?	1	-3	0.3	-6	-6
5	CCOC(=O)c1sc(NC(=O)CN(CC(C)C)CC(C)C)c(C(=O)OCC)c1C	-1	-1	-1	-0.6	4	10
6	O=C(NCCCNC(=O)C(F)(F)C(F)F)C(F)(F)C(F)F	4	0	19	0.0	4	9
7	Cc1cc(-c2ccc(C(=O)O)s2)cnc1N	7	nt	-3	-0.2	9	5
8	CCOc1cc2[nH]c(=S)n(CCN3CCCCC3C)c(=O)c2cc1OCC (stereo unspecified)	14	1	-3	0.1	-3	-3
9	Cc1nc2ccc(NC(=O)c3cccc(S(=O)(=O)N4CC(C)OC(C)C4)c3)cc2s1 (stereo unspecified)	-3	0	14	-0.6	-13	-22
10	COc1ccc(S(=O)(=O)NC(C)C(=O)NC2CC2)cc1C (stereo unspecified)	-2	-1	-12	0.1	-1	12
11	CCC(=O)N1CCN(c2ccnc3cc(Cl)ccc23)CC1	-32	3	-5	-0.9	7	1
12	NC(=O)Cc1nc(-c2ccccc2)cs1	1	9	-8	0.9	17	12
13	Cc1ccccc1Nc1nc(N)nc(CSc2nnc3sc4ccccc4n23)n1	5	7	-18	0.3	-11	-1
14	CCOC(=O)C1=C(C)OC(N)=C(C#N)C1c1cc(C)sc1C (stereo unspecified)	-7	-3	-4	1.6	-18	-1
15	Cc1cccc(Nc2nc3c(S(=O)(=O)c4ccccc4)nnn3c3ccccc23)c1C	9	1	-7	2.2	0	1
16	CCC1Sc2ccc(S(=O)(=O)CCC(=O)Nc3c(Cl)cc(OC)cc3OC)cc2NC1=O (stereo unspecified)	13	nt	-6	1.2	1	?
17	Cc1cc(C(=O)CN2CCN(CC(=O)Nc3cccc(F)c3)CC2)c(C)n1C1CC1	-6	2	-21	1.6	8	-2
18	Cc1cccc(OCCOC(=O)Nc2ccccc2)c1	1	0	-8	-0.4	-17	9
19	CCOC(=O)C1=C(O)/C(=C/c2cc(C)n(-c3ccccc3)c2C)N=C1C	nt	-19	-6	1.0	31	-12
20	COC(=O)C1C(=O)NCC1c1ccc(C)cc1 (stereo unspecified)	19	8	-4	0.6	-8	-1
21	CCOC(=O)Cn1c(COc2ccccc2OC)[n+](C)c2ccccc21	nt	nt	6	0.5	28	20
22	O=C(Nc1cccc(S(=O)(=O)Nc2ccc(Cl)cc2)c1)c1cc2c(s1)CCCC2	-11	4	-10	0.3	-17	-1
23	CC1=C(C(=O)N(C)C)CC(CC(=O)NCCN2CCOCC2)C(=O)N1Cc1ccc(F)cc1 (stereo unspecified)	nt	7	2	-0.5	-7	-5
24	COc1ccc(NC(=O)C2(S(=O)(=O)c3ccc(C)cc3)CC2)cc1	3	-2	-5	3.1	2	6
25	CCc1noc(C)c1C(=O)N1CCOCC1	0	11	-9	0.3	-6	7
26	COc1ccc(C(=O)Oc2cc(/C=N/NC(N)=S)ccc2OC)cc1	5	-9	-2	0.1	8	-16
27	CCC(C)c1ccc(S(=O)(=O)N2CCN(C(=O)CN3C(=O)NC(C)(C4CC4)C3=O)CC2)cc1 (stereo unspecified)	nt	4	-10	-1.1	-9	-8
28	O=C(NC(=S)NCc1ccco1)c1ccc([N+](=O)[O-])cc1	nt	-6	17	2.2	-10	-23
29	COCC(C)NC(C(=O)Nc1ccc(C)c(Cl)c1)c1ccccc1 (stereo unspecified)	-12	3	0	1.3	1	-1
30	Cc1nc(NC(=O)COC(=O)/C=C/c2ccco2)c(Cl)cc1Cl	0	3	-5	0.1	11	-3
31	COc1cccc(CC2(CO)CCCN(Cc3ccc(CO)o3)C2)c1 (stereo unspecified)	-2	5	-6	-0.5	37	1
32	O=[N+]([O-])c1cc(/C=N/N/C(=N/c2ccccn2)c2ccccn2)ccc1O	17	?	-23	-0.8	28	-86*
33	CC(=O)Nc1ccc(Oc2nc(C(F)(F)F)nc3ccccc23)cc1	-4	-2	-9	1.5	5	7
34	Cc1cc(NC(=O)c2cc(CC(C)C)on2)no1	20	5	-7	-0.5	-6	5
35	COC(=O)[C@H](C)NC(=O)NCc1ccc(F)cc1	7	6	-15	3.8	13	3
36	Cc1cc(C(=O)Nc2ccc(S(=O)(=O)N3CCOCC3)cc2)c(C)o1	29	-2	0	-0.7	-5	-10
37	CC(C)(C)OC(=O)Nc1ccc([C@H](NC(=O)OC(C)(C)C)C(=O)OC(C)(C)C)cc1	-13	6	-7	-0.7	51	5
38	Nc1nc(N)n(-c2ccccc2)c(=Nc2ccccc2)n1	9	1	8	nt	nt	1
39	COc1cc(CCNC(=O)CCCn2c(=O)c3cccn3c3cccnc32)cc(OC)c1OC	-1	2	3	-1.0	-1	-2
40	NC(=O)CSc1nnc(-c2cccc(S(=O)(=O)N3CCOCC3)c2)o1	nt	1	-9	0.2	2	1

Additional records:
| no. | Structure | TRPV1 PAM | CtBP-E1A inh | D2 potentiator | TRPML1 agonist | TRPML1 inh | Six1-Eya2 inh |
| --- | --- | --- | --- | --- | --- | --- | --- |
| 41 | CCOCCCn1c(=S)[nH]c2cc(C(=O)N3CCN(C4CCCCC4)CC3)ccc2c1=O | 11 | 1 | -6 | -1.2 | 15 | 1 |
| 42 | Cn1c(=O)[nH]c(=O)c2c1nc(NC1CCCCC1)n2CCO | -4 | -10 | -4 | -0.9 | -7 | 4 |
| 43 | CC1CCCCN1C(=O)Cn1c(=O)n(C2CCCCC2)c(=O)c2ccccc21 (stereo unspecified) | -13 | -5 | 2 | 1.1 | -2 | 6 |
| 44 | Cc1nc(CCNC(=O)c2cc(COc3ccc(F)cc3Cl)on2)sc1C | 17 | nt | -18 | 1.9 | 8 | -2 |
| 45 | O=C(c1ccc(-c2ccc([N+](=O)[O-])cc2)o1)N1CCCCCCC1 | -22 | nt | -9 | -0.4 | -21 | -11 |
| 46 | CN(C)CCNC(=O)c1sc2nc(-c3ccccc3)cc(C(F)(F)F)c2c1N | 0 | -19 | -12 | 16 | -13 | -5 |
| 47 | Cc1ccnc(SCCn2c(N3CCN(C)CC3)nc3c2c(=O)n(C)c(=O)n3C)n1 | -2 | nt | 3 | 0.5 | -24 | -2 |
| 48 | Cc1ccc(C(=O)N/C(=C/c2ccc(-c3cc(C(F)(F)F)ccc3Cl)o2)C(=O)NCc2cccnc2)cc1 | 17 | 7 | -13 | 0.3 | 22 | -11 |
| 49 | COCc1[nH][nH]c(=O)c1C=Nc1ccc(Oc2ccccc2)cc1 | -18 | -12 | 7 | 0.2 | 12 | -14 |
| 50 | COc1cccc(NC(=O)CSc2nc3ccccc3c3nc4ccccc4n23)c1 | 16 | 0 | -12 | 2.2 | 7 | -5 |
| 51 | CC(=O)c1cccc(NCC(=O)N2CCN(S(=O)(=O)c3ccccc3)CC2)c1 | 18 | 7 | -2 | -0.5 | 10 | 5 |
| 52 | Cn1c(CC(=O)NNC(=O)c2cncc(Br)c2)nc2ccccc21 | nt | -1 | -4 | -0.6 | 12 | 0 |
| 53 | Cc1[nH]c2ccccc2c1SCC(=O)N1CCN(c2ccccc2)CC1 | 8 | -9 | 0 | 0.1 | -5 | -6 |
| 54 | CC(c1ccccn1)N(C)C(=O)c1ccc2nc(Cc3ccccc3F)oc2c1 (stereo unspecified) | 1 | 2 | 26 | -0.5 | 0 | -2 |
| 55 | CCCCn1nnnc1C(c1ccccc1)N1CCN(Cc2c(F)cccc2Cl)CC1 (stereo unspecified) | nt | -1 | nt | 57* | nt | -15 |
| 56 | COc1ccc(COCCN2CCN(S(=O)(=O)c3ccccc3)CCC2=O)cc1 | 18 | 2 | 1 | -0.2 | 0 | -2 |
| 57 | C=CCn1c(SCC(=O)c2c(C)[nH]c3ccccc23)nnc1-c1ccncc1 | -1 | nt | -6 | -0.4 | 4 | 1 |
| 58 | C=CCSc1nc(C)c(CC(=O)OCCCC)c(=O)[nH]1 | 12 | -1 | 11 | 0.9 | -4 | 1 |

Entries 57–58 from above:
| no. | Structure | TRPV1 PAM | CtBP-E1A inh | D2 potentiator | TRPML1 agonist | TRPML1 inh | Six1-Eya2 inh |
| --- | --- | --- | --- | --- | --- | --- | --- |
| 57 | C=CCn1c(SCC(=O)c2c(C)[nH]c3ccccc23)nnc1-c1ccncc1 | -1 | nt | -6 | -0.4 | 4 | 1 |
| 58 | C=CCSc1nc(C)c(CC(=O)OCCCC)c(=O)[nH]1 | 12 | -1 | 11 | 0.9 | -4 | 1 |

Arranged by length of the SMILES (rising): some entries from above
| no. | Structure | TRPV1 PAM | CtBP-E1A inh | D2 potentiator | TRPML1 agonist | TRPML1 inh | Six1-Eya2 inh |
| --- | --- | --- | --- | --- | --- | --- | --- |
| 58 | C=CCSc1nc(C)c(CC(=O)OCCCC)c(=O)[nH]1 | 12 | -1 | 11 | 0.9 | -4 | 1 |
| 42 | Cn1c(=O)[nH]c(=O)c2c1nc(NC1CCCCC1)n2CCO | -4 | -10 | -4 | -0.9 | -7 | 4 |
| 52 | Cn1c(CC(=O)NNC(=O)c2cncc(Br)c2)nc2ccccc21 | nt | -1 | -4 | -0.6 | 12 | 0 |
| 53 | Cc1[nH]c2ccccc2c1SCC(=O)N1CCN(c2ccccc2)CC1 | 8 | -9 | 0 | 0.1 | -5 | -6 |
| 44 | Cc1nc(CCNC(=O)c2cc(COc3ccc(F)cc3Cl)on2)sc1C | 17 | nt | -18 | 1.9 | 8 | -2 |
| 50 | COc1cccc(NC(=O)CSc2nc3ccccc3c3nc4ccccc4n23)c1 | 16 | 0 | -12 | 2.2 | 7 | -5 |
| 56 | COc1ccc(COCCN2CCN(S(=O)(=O)c3ccccc3)CCC2=O)cc1 | 18 | 2 | 1 | -0.2 | 0 | -2 |
| 45 | O=C(c1ccc(-c2ccc([N+](=O)[O-])cc2)o1)N1CCCCCCC1 | -22 | nt | -9 | -0.4 | -21 | -11 |
| 46 | CN(C)CCNC(=O)c1sc2nc(-c3ccccc3)cc(C(F)(F)F)c2c1N | 0 | -19 | -12 | 16 | -13 | -5 |
| 51 | CC(=O)c1cccc(NCC(=O)N2CCN(S(=O)(=O)c3ccccc3)CC2)c1 | 18 | 7 | -2 | -0.5 | 10 | 5 |
| 47 | Cc1ccnc(SCCn2c(N3CCN(C)CC3)nc3c2c(=O)n(C)c(=O)n3C)n1 | -2 | nt | 3 | 0.5 | -24 | -2 |
| 48 | Cc1ccc(C(=O)N/C(=C/c2ccc(-c3cc(C(F)(F)F)ccc3Cl)o2)C(=O)NCc2cccnc2)cc1 | 17 | 7 | -13 | 0.3 | 22 | -11 |

Screening results as filed in PubChem BioAssay.
